Screening results from PubChem BioAssay.
RN4220 kill: S. aureus RN4220 growth inhibition; OD600, 16 h; inhibition, % (concentration not given with the values); actives 0.33% (n = 330,000); AID 1259311;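 active means z-score of -3 or lower and OD600 up to 0.18 on both plates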;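 further: plate controls were untreated cells for no effect and reference antibiotic for full effect; stock transfer was 100 nL into about 80 µL; one replicate is shown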
BJeLR lethal: kills HRASV12-expressing BJeLR cells; BJeLR (HRASV12) viability, CellTiter-Glo ATP luminescence, 48 h; reference of the scale not given here; inhibition, % (concentration not given with the values); actives 0.17% (n = 300,000); AID 1554;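 active means replicate mean above 50%; inconclusive means above 50% but judged a plate artefact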;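 further: 50 nL library stock added to about 25 µL; numbers are from one replicate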
Autofluor counter: compound fluorescence in toxin protease inhibitor counterscreen. fluorescence intensity (test concentration not listed). compound autofluorescence counterscreen, microsphere flow cytometry; hits give high values. actives 3.1% (n = 360,000);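 active means at least 3 SD above the mean of all compounds, about 16000 in these data; inconclusive means too few beads counted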;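 further: 100 nL of 1 mM stock went into each well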
Sa ugtP lethal: kills S. aureus RN4220 lacking UgtP; growth inhibition, % (no concentration beside the values); actives 0.54% (n = 330,000); AID 1259309; S. aureus RN4220 ugtP deletion, OD600 growth, 16 h; some inactives read as strong as hits;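 active means z-score under -3 and OD600 up to 0.15 on both plates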;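 further: plate controls were untreated wells for no effect and antibiotic for full effect; wells of about 80 µL received 100 nL stock; the first replicate is given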
PrP 5UTR inh: inhibition of PrP 5' UTR reporter expression | cell-based PrP 5' UTR mRNA reporter, plate reader | inhibition, % (no concentration beside the values) | actives 0.35% (n = 340,000) | AID 488862;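 active means every replicate at 50% or more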;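 further: 0 = median of the neutral control wells; tested in H4 reporter cells; numbers are from one replicate; inactives centre near -14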
Mtb hypoxia rep: reduces hypoxia-regulated biosensor signal in M. tuberculosis; M. tuberculosis hypoxia-regulated fluorescent reporter, fluorescence; fluorescence inhibition, % (no concentration beside the values); actives 0.1% (n = 300,000); AID 1159583;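 active means 35 to 45% if threefold the growth effect, above 45% if 1.5-fold the growth effect; inactive means the rest, general growth blockers included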;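 further: wells of about 50 µL received 100 nL stock; 0% = vehicle wells and 100% = reference inhibitor wells; whole bacteria with a GFP reporter of the hypoxia response; strong numbers were not always called active; many hits fall short of the cut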
Mtb hypoxia rep growth: further read-out of Mtb hypoxia rep, marked with its call; growth inhibition, %; measured here: M. tuberculosis growth (absorbance);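 0% = vehicle and 100% = reference antibiotic; read after six days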
Numbers without * were called inactive; ? = inconclusive; · = not tested or not shown. This is a random part of the collection (roughly 4% active in at least one column).

SMILES | RN4220 kill | BJeLR lethal | Autofluor counter | Sa ugtP lethal | PrP 5UTR inh | Mtb hypoxia rep | Mtb hypoxia rep growth
Cc1noc(C)c1CN1C(=O)NC2(CCc3ccccc3C2)C1=O (stereo not drawn) | 0.6 | -0.9 | 4265 | 7.6 | -13.5 | -96.3 | -11.4
Cc1cc(C)c2c(c1)C(=NNC(=O)c1ccc(O)cc1)CCC2 | 4.7 | · | · | 20.3 | · | 15.9 | 14.2
CCN(c1ccccc1)S(=O)(=O)c1ccc(OC)c(NC(=O)c2cc(Cl)ccn2)c1 | 3.4 | · | 5981 | -0.7 | -19.5 | -6.4 | -1.0
CCC(C)[C@H]1CNCCN1CCc1cccc(F)c1 (stereo partly drawn) | · | 9.1 | 3029 | · | -18.2 | · | ·
O=C(Nc1ccccc1)OCc1cc(-c2ccc(Cl)cc2)on1 | -13.1 | 1.6 | ? | -21.1 | -23.6 | -1.3 | 10.4
CC(C)(C)/C=N/NC(=O)CNC(=O)c1ccc2c(c1)OCCO2 | · | -4.2 | 3716 | · | -21.7 | · | ·
CC1CCCC(C)N1C(=O)CN1C(=O)C(C)(C)Oc2ccc(C(=O)NC3CCCC3)cc21 (stereo not drawn) | 3.0 | -9.2 | 10673 | -0.5 | -23.8 | -6.7 | 0.3
Cc1ccc(/C=N/NC(=O)c2ccncc2)s1 | · | -6.8 | 3336 | · | -23.8 | · | ·
Cc1ccc(NC(=S)Nc2ccc(OC(F)F)c(Cl)c2)cc1F | 73.4 | -1.4 | 4421 | 64.2 | -33.9 | -0.5 | 12.8
COc1cccc(CN2CCN(Cc3ccccc3C(F)(F)F)CC2)c1 | 3.7 | 0.7 | 3154 | 57.5 | -7.2 | 0.1 | -5.5
NC(=O)CSc1nnc(Cn2cnc3ccccc32)o1 | 3.7 | -0.6 | 3109 | 5.3 | -21.8 | 9.8 | 0.7
C=CCN(CC=C)C(=O)COn1nnc2ccc(S(=O)(=O)N3CCOCC3)cc21 | -0.2 | 0.1 | ? | 2.3 | 0.3 | -0.3 | -2.0
COc1ccc(C(=O)NCC(=O)NN=Cc2cccc(OC(=O)c3ccco3)c2)cc1OC | 2.4 | · | · | 2.1 | · | -0.3 | 5.9
Cc1[nH]c(=S)c(C#N)c(C)c1CC(=O)c1ccc(Br)cc1 | -1.4 | 14.3 | 4192 | 2.4 | -8.3 | -9.5 | -10.9
O=C(O)CCCNC1=NCCC1 | 11.1 | -6.0 | 3131 | 2.2 | 6.5 | 6.8 | 4.3
Cc1cccc(OCC(=O)N/N=C/c2cccn2C)c1 | · | -5.0 | 4340 | · | -12.7 | · | ·
CC(C)Cc1nnc(NC(=O)C23CC4CC(CC(C4)C2)C3)s1 | 1.1 | -9.1 | 3465 | -1.6 | -60.2 | 6.4 | 14.1
O=Nc1ccc(NOC(=O)c2ccccc2Br)cc1 | 0.0 | -8.2 | 2405 | 18.8 | -39.5 | 11.8 | 3.0
O=C(Nc1ccc2oc(-c3ccncc3)nc2c1)c1ccco1 | -0.5 | 12.1 | 5922 | 12.4 | -27.2 | -1.0 | 11.6
CCn1ncc(C2=NOC(C(=O)NCCc3ccccc3)C2)c1C (stereo not drawn) | 2.6 | -8.1 | 9809 | 2.4 | -19.3 | 5.4 | 4.6
COCCCNc1nc2ccccc2nc1NS(=O)(=O)c1cc(Cl)ccc1Cl | 10.6 | -1.5 | 3518 | -8.9 | -11.4 | -9.9 | 8.5
Cc1ccc(-c2ccc(C(=O)Nc3ccccc3)o2)c2ccccc12 | 3.1 | -8.5 | 4264 | -15.4 | -15.4 | 5.8 | 7.2
CC(C)(C)S(=O)N1Cc2cc(CO)ccc2[C@@H]1CCO (stereo partly drawn) | 2.5 | · | 3781 | 8.9 | -5.1 | -13.8 | -4.0
O=C(c1ccc(N2CCOCC2)nc1)N1CCCCC1 | 5.2 | -7.1 | 7885 | -1.1 | -12.4 | -4.0 | 11.7
COCCNC(=S)N/N=C(\C)c1cccc(OC)c1 | · | 3.7 | 4321 | · | -6.0 | · | ·
CC1=CC(C)C2C(=O)N(c3ccccc3)NC(=O)C2C1 (stereo not drawn) | 9.3 | -7.4 | 2595 | 2.9 | -31.2 | 1.0 | 4.7
O=C(Nc1ccc(CN2CCCCC2)cc1)Nc1ccc(Br)cc1Cl | -15.7 | 23.2 | 3492 | -11.2 | 3.9 | 19.6 | 12.3
CN(CC(=O)NCc1ccc2c(c1)OCO2)S(=O)(=O)c1ccc(Br)s1 | -5.8 | 5.7 | 4557 | 3.6 | -12.9 | · | ·
CC(OC(=O)CCc1cc(C(C)(C)C)c(O)c(C(C)(C)C)c1)C(=O)NC1CC1 (stereo not drawn) | 1.7 | -3.8 | · | -1.4 | -13.2 | -10.6 | 5.4
O=C(CN1CCN(c2ccc(F)cc2)CC1)NCc1ccc(F)cc1 | 3.9 | -0.6 | 3671 | 1.0 | -20.0 | 2.8 | 14.2
CNc1ccccc(-c2ccc3ccccc3n2)c1=O | · | -1.4 | 7373 | · | -80.4 | · | ·
C=CCN1C(=O)S/C(=C/c2ccc(Sc3nc4ccccc4[nH]3)o2)C1=O | -3.2 | -1.0 | 2207 | -9.6 | -6.2 | 5.8 | 12.2
COc1cccc(Nc2nnc(SCC(=O)N(CC(C)C)CC(C)C)s2)c1 | -4.3 | -2.9 | 1986 | -15.8 | -9.5 | · | ·
Cc1ccc(C2(C)NC(=O)N(CC(=O)Nc3cc(S(=O)(=O)N4CCCCC4)ccc3OC(C)C)C2=O)cc1 (stereo not drawn) | 1.4 | 3.4 | 6619 | -1.5 | -18.7 | -2.3 | 5.4
COC(=O)CNC(=O)CSc1nnc(-c2ccc(OC)cc2)n1CC(C)C | -1.5 | -8.8 | 11692 | -3.9 | -3.8 | 2.0 | 6.8
CCS(=O)(=O)c1nn2c(N)c(/C=C3/C=CC(=O)C(OC)=C3)c(=O)nc2s1 | 1.9 | -6.5 | 2210 | 0.7 | -18.2 | 22.4 | 24.3
CC(=O)C(=NNc1ccccc1)Sc1nnc(C(O)c2ccccc2)n1-c1ccccc1 (stereo not drawn) | 10.2 | · | · | 4.0 | · | 6.9 | -1.0
Cc1cccc(NC(=O)Cn2nnc(C(=O)Nc3ccc(F)c(Cl)c3)c2N)c1 | 3.4 | 5.2 | 5886 | -5.9 | -2.0 | 6.3 | -1.1
CCc1cc2c(-c3ccccc3)cc(=O)oc2cc1OC(C)C(=O)NCC1CCC(C(=O)O)CC1 (stereo not drawn) | 10.7 | -1.7 | 4960 | 4.2 | -34.8 | · | ·
COc1ccc(S(=O)(=O)Nc2cccc3c2OC(CN(C)S(=O)(=O)c2ccc(Cl)cc2)C(C)CN(C(C)CO)C3=O)cc1 (stereo not drawn) | -0.1 | · | · | -15.5 | · | -6.3 | 7.2

In the list so far, these contain fluorine.
SMILES | RN4220 kill | BJeLR lethal | Autofluor counter | Sa ugtP lethal | PrP 5UTR inh | Mtb hypoxia rep | Mtb hypoxia rep growth
CCC(C)[C@H]1CNCCN1CCc1cccc(F)c1 (stereo partly drawn) | · | 9.1 | 3029 | · | -18.2 | · | ·
Cc1ccc(NC(=S)Nc2ccc(OC(F)F)c(Cl)c2)cc1F | 73.4 | -1.4 | 4421 | 64.2 | -33.9 | -0.5 | 12.8
COc1cccc(CN2CCN(Cc3ccccc3C(F)(F)F)CC2)c1 | 3.7 | 0.7 | 3154 | 57.5 | -7.2 | 0.1 | -5.5
O=C(CN1CCN(c2ccc(F)cc2)CC1)NCc1ccc(F)cc1 | 3.9 | -0.6 | 3671 | 1.0 | -20.0 | 2.8 | 14.2
Cc1cccc(NC(=O)Cn2nnc(C(=O)Nc3ccc(F)c(Cl)c3)c2N)c1 | 3.4 | 5.2 | 5886 | -5.9 | -2.0 | 6.3 | -1.1

Following part
SMILES | RN4220 kill | BJeLR lethal | Autofluor counter | Sa ugtP lethal | PrP 5UTR inh | Mtb hypoxia rep | Mtb hypoxia rep growth
O=C(CCc1ccccc1)Nc1c(F)cccc1F | -0.5 | -3.8 | 6348 | 5.6 | -27.1 | 5.4 | 2.9
CC(=NNC(=O)c1cccc(S(=O)(=O)N2CCOCC2)c1)c1ccc(O)cc1 | 1.4 | · | · | 4.2 | · | 0.8 | -0.4
S=C(NCCc1ccccc1)NCCc1ccccc1 | -1.7 | 2.2 | 1971 | -1.0 | -95.8 | 13.1 | 1.5
N#CC1=C(N)Oc2n[nH]c(-c3ccccc3)c2C1c1ccncc1 (stereo not drawn) | 6.6 | 3.7 | 3736 | 6.3 | -6.9 | 14.0 | 20.0
CC(=O)Nc1ccc(NC(=O)C(C)OC(=O)CNC(=O)c2cccs2)cc1 (stereo not drawn) | 4.4 | 3.2 | 4982 | 8.3 | -29.1 | 2.5 | 2.9
O=C(CN1C(=O)c2ccccc2C1=O)NC1CCC(O)CC1 (stereo not drawn) | 7.3 | · | 3956 | 7.6 | -2.1 | 17.1 | -1.3
COc1ccc(N(CC(=O)Nc2cc(OC)c(OC)cc2C(=O)O)S(=O)(=O)c2c(C)noc2C)cc1 | 4.4 | -4.7 | 5182 | 3.1 | 2.5 | 4.5 | 2.9
O=C(NN=Cc1ccncc1)c1ccc2c(c1)OCO2 | 1.9 | · | · | 7.6 | · | 9.8 | 1.8
O=C(c1ccc2ccccc2n1)N1CCN(c2ccccc2Cl)CC1 | 7.9 | 1.2 | 3524 | 6.5 | -36.0 | 6.0 | -1.5
CC1=CN2CC(O)CN=C2C=C1 (stereo not drawn) | 4.2 | 5.5 | 11298 | 4.5 | -13.9 | 8.5 | 4.6
Cc1ccccc1C(C(=O)NC1CCCC1)N(C(=O)CNC(=O)c1ccco1)c1cccnc1 (stereo not drawn) | 5.8 | 13.3 | · | 8.3 | · | 6.6 | 5.1
CCOc1cc(NC(=O)CCl)c(OCC)cc1NC(=O)CCl | 1.6 | 0.0 | 4392 | 6.5 | -38.2 | · | ·
NS(=O)(=O)c1ccc(CCN2C(=O)/C(=C\c3ccc(Cl)cc3)SC2=S)cc1 | · | -16.3 | 7331 | · | 2.4 | · | ·
CC(C)OP(=O)(OC(C)C)C(NC(=O)c1ccccc1Br)C(N)=O (stereo not drawn) | -2.7 | 7.6 | 6165 | -1.6 | -30.0 | -4.9 | 13.5
O=C(NNC(=O)c1ccc[nH]1)c1cc(Cl)cc(Cl)c1 | 2.4 | -0.4 | 5422 | 2.5 | -3.7 | 4.7 | -1.5
Cc1ccc(C)c(Oc2cc(NC(=O)CCCn3nc(C)c([N+](=O)[O-])c3C)cc([N+](=O)[O-])c2)c1 | -10.3 | 4.6 | 2164 | -18.2 | -12.8 | 8.3 | 4.7
CC(C)(C)NC(=O)NC(=O)COC(=O)Cc1coc2ccc3ccccc3c12 | 5.8 | -4.8 | 2082 | 5.3 | -28.3 | 4.8 | 0.6
C=CCSc1nnc(N2C(=O)C(O)=C(C(=O)c3ccco3)C2c2ccccc2F)s1 (stereo not drawn) | 22.7 | -6.2 | · | 1.1 | -24.9 | -9.5 | -0.4
Cc1ccc(S(=O)(=O)Nc2cccc(C(=O)NCc3ccccn3)c2)cc1F | 3.2 | -14.1 | ? | -2.2 | -15.1 | 6.7 | -1.5
CN(C)C(=O)c1ccc(NC(=O)CSc2nnc(-c3ccc4c(c3)OCO4)o2)cc1 | 4.2 | · | 5020 | 2.8 | -10.6 | 4.2 | 1.5
CCCCN(C(=O)CCCc1nc2ccccc2c(=O)[nH]1)c1c(N)n(CC(C)C)c(=O)[nH]c1=O | 0.0 | · | 8449 | 0.6 | -6.1 | 0.9 | 7.0
Cc1ccc(S(=O)(=O)Nc2ccc3c(c2)C(=O)N([C@H](C)CO)C[C@H](C)[C@@H](CN(C)C(=O)Nc2ccc(C(F)(F)F)cc2)O3)cc1 | -8.4 | · | 2982 | -13.4 | -14.4 | -6.3 | 5.7
CC(=O)N1CCN2C(=O)C1CCCC(=O)c1cc(C(C)C)ccc12 (stereo not drawn) | -9.7 | 0.7 | 3213 | -4.8 | -7.7 | 2.3 | 3.8
O=C(Nc1cccc(-c2ccc(N3CCOCC3)nn2)c1)c1ccc(Cl)cc1 | 4.4 | 1.6 | 5461 | 3.3 | -56.0 | -0.1 | -9.8
CC1CCCCC1NC(=O)COc1ccccc1C#N (stereo not drawn) | 4.4 | · | 5997 | -2.8 | -13.5 | 10.2 | 11.3
